Source: PubChem
Rango-impB inh – qHTS Assay for Inhibitors of Rango (Ran-regulated importin-beta cargo) - Importin beta complex formation. Importin subunit beta-1 (Homo sapiens), Q14974. Rango CFP/YFP FRET sensor + importin beta, 45 min. Potency, µM (top dose mostly 92.2 µM), inactives show top-dose inhibition of complex formation. 0.031% of 340,000 active. AID 540263, 2011; active = rising FRET ratio curve, often small or poorly fitted; inconclusive = mostly compound fluorescence or quenching in the first reads; inactive = flat curves in all reads;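 note: potency is the fitted concentration of half-maximal effect; 0% = DMSO wells and 100% = buffer wells lacking importin beta; nearly all actives have a fitted effect of over 15% in size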
Target sequence (Q14974 whole entry, looked up): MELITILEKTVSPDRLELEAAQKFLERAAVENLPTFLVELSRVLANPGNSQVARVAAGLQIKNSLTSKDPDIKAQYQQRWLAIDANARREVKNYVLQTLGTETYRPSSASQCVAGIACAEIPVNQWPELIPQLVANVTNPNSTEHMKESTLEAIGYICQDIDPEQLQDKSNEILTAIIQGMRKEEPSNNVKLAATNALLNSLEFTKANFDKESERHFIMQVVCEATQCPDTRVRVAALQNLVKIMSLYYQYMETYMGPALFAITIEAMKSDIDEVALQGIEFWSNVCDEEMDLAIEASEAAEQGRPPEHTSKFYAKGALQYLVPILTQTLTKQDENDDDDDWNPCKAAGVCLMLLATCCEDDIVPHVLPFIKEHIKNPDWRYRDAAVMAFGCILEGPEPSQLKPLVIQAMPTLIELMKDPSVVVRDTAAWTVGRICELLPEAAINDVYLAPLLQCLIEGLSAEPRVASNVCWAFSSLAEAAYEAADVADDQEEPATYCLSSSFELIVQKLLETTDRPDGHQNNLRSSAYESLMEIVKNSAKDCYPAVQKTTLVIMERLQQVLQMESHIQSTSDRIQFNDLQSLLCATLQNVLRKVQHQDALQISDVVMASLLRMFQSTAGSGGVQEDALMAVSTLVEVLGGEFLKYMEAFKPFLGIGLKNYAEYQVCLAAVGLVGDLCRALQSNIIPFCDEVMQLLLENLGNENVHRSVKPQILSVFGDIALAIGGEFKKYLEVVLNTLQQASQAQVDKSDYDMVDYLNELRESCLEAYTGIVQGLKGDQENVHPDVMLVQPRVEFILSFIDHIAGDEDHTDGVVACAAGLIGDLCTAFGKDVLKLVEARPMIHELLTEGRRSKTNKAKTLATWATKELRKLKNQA
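FRET biosensor (snurportin 1 IBB flanked by EYFP and cerulean), 50 nM, with compound 5 min, then 0.125 microM importin beta in PBS, 1 mM DTT, 0.02% Tween-20, 0.1% BSA. CFP/YFP ratio read after 45 min at room temperature; pre-read flags interference.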
miR-21 FLuc – qHTS Assay for Modulators of miRNAs and/orActivators of miR-21; Potency, µM (titrated, usually from 38.3 µM), inactives show at the top dose reporter change, positive = more light; 340,000 tested, under 10 active; HeLa miR-21 FLuc reporter, luciferase, 48 h; active = well fitted rising curve with a large enough effect; inconclusive = small, poorly fitted or top-dose-only effect; inactive = no such curve, though single readings can be large or run the other way;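 note: % of control where 0% means no effect; miR-21 action dims this reporter so a rising signal means less miR-21 action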
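Using DMEM plus 10% FBS, HeLa miR-21-FLuc cells are incubated with test compounds (final up to about 40uM) for 48 hours; firefly luciferase signal is then imaged following reagent-mediated lysis.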
Rango release inh – qHTS Assay for Inhibitors of RanGTP induced Rango (Ran-regulated importin-beta cargo) - Importin beta complex dissociation. Biochemical FRET Rango-importin beta, RanGTP-induced dissociation. 0.071% of 340,000 active. AID 540253, 2011. Potency, µM (doses to about 46.1 µM), for the others: top-dose activity change, negative = inhibition; active means falling FRET ratio curve, often poorly fitted, with flat reads before Ran was added; inconclusive means other falling curves, or compound fluorescence or quenching; inactive means flat or rising ratio curve;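 note: potency is the fitted concentration of half-maximal effect; % of control where 0% means no effect; nearly all actives have a fitted effect of over 45% in size; -100% = wells without RanGTP and RCC1; the record marks most hits as doubtful in a second field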
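Rango FRET biosensor (snurportin-1 IBB flanked by N-terminal EYFP and C-terminal CFP10) at 0.1 uM, with 0.25 uM importin beta in PBS, 1mM DTT, 0.02% Tween-20, 0.1% BSA. 0.6 uM Ran, 2mM GTP and 0.2 uM RCC1 were then added for 45 min at room temperature. Inhibition read as loss of FRET rise.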
GLA inh pH 4.5 – qHTS Assay for Inhibitors of Human alpha-Galactosidase at pH 4.5. Alpha-galactosidase A (Homo sapiens), P06280. purified enzyme, 4-MU-alpha-Gal fluorescence, pH 4.5. activity change, negative = inhibition, % at 105 µM. 230,000 tested, under 10 active. AID 1467, 2008; inconclusive = small, poorly fitted or top-dose-only inhibition, or a rising curve; inactive = flat fitted curve, though single readings scatter; no compound was filed as active;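 note: 0% = full activity with enzyme and -100% = basal without enzyme; dose as in the result columns while the protocol names 77 µM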
The depositor's hits bear a star; ? = inconclusive; nt = not tested or not shown; & = joins results of further samples. An excerpt, so the mix of outcomes need not match the whole.

item	Rango-impB inh	miR-21 FLuc	Rango release inh	GLA inh pH 4.5	SMILES
1	-0.6%	-5%	-5%	-1	CCOC(=O)Cn1c(-c2cccnc2Cl)nc2cc(C)c(C)cc21
2	-0.5%	nt	-22%	nt	Cc1cc(C)n2nc(C(=O)OCC(=O)N(C)C3CCS(=O)(=O)C3)nc2n1 (stereo not given)
3	-1.2%	3%	5%	-12	COc1ccc(Oc2ccc(/C=N/NC(=O)c3cccnc3)cc2[N+](=O)[O-])cc1
4	-4.8%	-5%	-9%	nt	Nn1c(SCC(=O)Nc2ccc3c(c2)OCCO3)nncc1=O
5	-4.4%	-21%	0%	-4	O=c1nc(NCc2ccco2)sc2ncccc12
6	-3.3%	-1%	-10%	0	O=C(CSc1nnc(Cc2cc(=O)[nH]c(=O)[nH]2)n1-c1ccc(Cl)cc1)NCC1CCCO1 (stereo not given)
7	-0.1%	-5%	0%	-2	Nc1nnc(SCC(=O)Nc2ccccc2N2CCOCC2)s1
8	-0.4%	-8%	-20%	-1	Cc1cc(C)nc(Sc2ccc3nnnn3n2)n1
9	0.9%	0%	-16%	nt	CC1(C)CC(=O)C(C(=O)c2ccccc2)C(=O)C1Cl (stereo not given)
10	-0.3%	-6%	-4%	nt	CCOC(=O)N1CCN(C(=O)c2cc3cc(Cl)ccc3[nH]2)CC1
11	2.3%	0%	-6%	3	CC(=O)Nc1ccc(S(=O)(=O)N2CCN(Cc3ccccn3)CC2)cc1
12	-3.3%	6%	6%	6	O=C(CSc1nc2ncc(Cl)cc2[nH]1)NC1CCS(=O)(=O)C1 (stereo not given)
13	-0.4%	-19%	10%	-14	Cc1ccc2[nH]c(=O)c(COC(=O)C3CCCCC3)cc2c1
14	3.9%	-14%	-17%	-4	CCOC(=O)C1=C(N)OC2=C(C(=O)CC(C)(C)C2)C1c1ccco1 (stereo not given)
15	-0.8%	1%	-9%	4	C/C(=N\O)C1(C)N(O)C(C)(C)C(c2ccco2)=[N+]1[O-] (stereo not given)
16	-0.8%	nt	2%	nt	O=C1CCc2cccc(O)c2N1
17	-5.2%	nt	-9%	nt	CCN1C(=O)[C@H]2[C@@H](c3ccc(-c4ccccc4)cc3)N3CCC[C@@]3(C(=O)OC)[C@H]2C1=O
18	-3.4%	0%	-11%	8	COc1cc2c(cc1OC)C(C1C(=O)CC(C)CC1=O)N(C(=O)CCl)CC2 (stereo not given)
19	2.1%	1%	1%	nt	CC1CCCCC1NC(=O)C1CCC(CNS(=O)(=O)c2ccccc2)CC1 (stereo not given)
20	?	-45%	?	nt	Cc1cc(C)c2c(N)c(C(=O)Nc3ccc(F)cc3)sc2n1
21	3.4%	-6%	-2%	-5	CCOC(=O)N1CCC(NC(=O)c2cccc3c2C(=O)N(CCOC)C3)CC1
22	3.7%	-14%	18%	-4	O=C(COc1cccnc1[N+](=O)[O-])N1CCc2ccccc21
23	2.9%	12%	1%	-13	O=C1c2ccccc2-n2c1nc1ccccc1c2=O
24	-0.9%	nt	-15%	nt	Cc1nnc(SCC(=O)NNC(=O)c2ccccc2)n1N
25	0.0%	0%	-1%	-1	Cn1nnc2cc(C(=O)Nc3cccnc3)ccc21
26	0.5%	-5%	23%	-3	Cc1c(NC(=O)c2cccc(NC(=O)c3ccco3)c2)cccc1C(=O)O
27	5.6%	nt	36%	nt	CCc1ccc(C(=O)CCC(=O)Nc2cccc(S(=O)(=O)N3CCCCC3)c2)cc1
28	-2.8%	1%	-2%	-7	CCN(CC)C(=O)C1CC(=O)N(c2ccc(OC)cc2)C1c1ccc(OC)cc1 (stereo not given)
29	0.1%	9%	-9%	nt	COc1ccc(N(C)S(=O)(=O)c2ccc3c(c2)NC(=O)CC(=O)N3)c(OC)c1
30	1.0%	-1%	35%	-1	NC(=O)C1CCN(C(c2ccccc2)c2nnnn2C2CCCC2)CC1 (stereo not given)
31	0.1%	-6%	6%	nt	CC1CCCC(NC(=O)CCCn2ncn3c(cc4occc43)c2=O)C1C (stereo not given)
32	-0.3%	-9%	-2%	6	COC(=O)C1CSc2[nH]c(=O)sc2C1c1ccc(OC)c(OC)c1 (stereo not given)
33	2.0%	nt	18%	nt	Cc1ccc(NC(=O)COC(=O)C2CCN(c3ccc(C(F)(F)F)cn3)CC2)cc1C
34	6.3%	-5%	1%	2	CCN(CC)S(=O)(=O)c1ccc(OC)c(NC(=O)c2ccc(=O)[nH]c2)c1
35	3.9%	10%	-1%	-2	Cc1ccc(C23CC4CC(CC(C(=O)N5CCN(C)CC5)(C4)C2)C3)cc1
36	4.3%	-2%	-16%	3	CC(=O)C1C(c2cccc(F)c2)NC(=O)NC1(O)C(F)(F)F (stereo not given)
37	-4.1%	-2%	-8%	-2	CC(=O)Nc1ccc(S(=O)(=O)N2CCN(C(=O)c3ccccc3F)CC2)cc1
38	-7.3%	0%&0%	-3%	3	CCCNC(=O)CCc1c(C)nc2nc(-c3cc(OC)cc(OC)c3)nn2c1C
39	0.4%	-1%	8%	4	Cc1ccc(S(=O)(=O)CC(=O)Nc2ccc(S(=O)(=O)Nc3onc(C)c3C)cc2)cc1
40	3.6%	-4%	-1%	nt	CC(C)[C@H]1CN(C)CCN1Cc1cn(C)nc1-c1cccc(Cl)c1

Profiles as entered above. Screens in order: Rango-impB inh | miR-21 FLuc | Rango release inh | GLA inh pH 4.5
Results for `CCN(CC)S(=O)(=O)c1ccc(OC)c(NC(=O)c2ccc(=O)[nH]c2)c1` : 6.3% | -5% | 1% | 2
Results for `Cc1ccc(NC(=O)COC(=O)C2CCN(c3ccc(C(F)(F)F)cn3)CC2)cc1C` : 2.0% | nt | 18% | nt
Results for `CCCNC(=O)CCc1c(C)nc2nc(-c3cc(OC)cc(OC)c3)nn2c1C` : -7.3% | 0%&0% | -3% | 3
Results for `CC(=O)Nc1ccc(S(=O)(=O)N2CCN(C(=O)c3ccccc3F)CC2)cc1` : -4.1% | -2% | -8% | -2
Results for `Cc1ccc(S(=O)(=O)CC(=O)Nc2ccc(S(=O)(=O)Nc3onc(C)c3C)cc2)cc1` : 0.4% | -1% | 8% | 4

(cont.)
item	Rango-impB inh	miR-21 FLuc	Rango release inh	GLA inh pH 4.5	SMILES
41	3.7%	-4%	-4%	5	CC(C)/C=C1\CCCCC1N(C)C(=O)NC(C)C (stereo not given)
42	0.1%	17%	-11%	nt	COc1ccc(CNCc2cc(C)c(OC)cc2C)c(OC)c1
43	1.5%	-13%	19%	-6	O=c1c(Cl)c(NCc2ccc(F)cc2)cnn1C12CC3CC(CC(C3)C1)C2
44	4.2%	nt	?	nt	CN(C)CCN=Cc1c(O)n(-c2ccc(S(=O)(=O)N3CCOCC3)cc2)c(=O)c2ccccc12
45	?	-44%	-12%	-1	O=S(=O)([N-]c1nc2ccccc2nc1-[n+]1ccc(-c2ccncc2)cc1)c1ccccc1
46	-0.8%	nt	-4%	nt	CC(=O)Nc1ccc(C(=O)COC(=O)c2cccs2)c(F)c1
47	-7.8%	nt	2%	nt	CCN(CC(=O)NCc1ccc(Cl)cc1)C(=O)CSCC(=O)Nc1ccc(C)cc1
48	-11%	-29%	-4%	-3	CC1CC1C(=O)Nc1nc(-c2ccccc2)cs1 (stereo not given)
49	?	-20%	-1%	nt	Cc1ccc(-c2nnn3c2nc(NC(C)C)c2ccccc23)cc1
50	1.5%	8%	-6%	-5	COc1ccc(S(=O)(=O)N2CCCC2C(=O)Nc2nc3c(s2)CCCC3)cc1 (stereo not given)
51	nt	-5%	nt	4	Cc1ccc(-c2ccc(SCC(=O)N3CCc4ccccc43)nn2)cc1
52	-0.4%	nt	-19%	nt	O=C(NCC(c1ccco1)N1CCCCC1)c1cccnc1 (stereo not given)
53	2.3%	-5%	-5%	4	CCN(N)C(=S)Nc1ccc(F)cc1
54	2.5%	-43%	4%	-1	CCOCC(=O)Nc1c(C(=O)Nc2ccc3c(c2)OCCO3)oc2ccccc12
55	-2.0%	-21%	?	nt	CN(C)CCCN(C(=O)COc1ccccc1)c1nc2cc3c(cc2s1)OCCO3
56	0.0%	-1%	-11%	-2	Cc1cccc(Oc2ncnc3onc(C)c23)c1C
57	1.6%	-4%	7%	-12	CNc1nc(SCc2ccccc2Cl)nc2c1CCCC2
58	-2.0%	-13%	-2%	nt	COCCn1c(-c2ccc(SC)cc2)nc2c1c(=O)[nH]c(=O)n2CC(C)C
59	-0.3%	nt	1%	nt	COC(=O)c1ccc(/C=C/C(=O)OCC(=O)NCc2cccs2)cc1
60	-7.2%	-16%	-4%	1	Cc1ccc(-c2cc(C(=O)N/N=C/c3c(C)nn(C)c3C)c3ccccc3n2)cc1C
61	-0.9%	nt	9%	nt	Cc1noc(NS(=O)(=O)c2ccc(NC(=O)c3cccc(S(=O)(=O)Nc4ccccc4F)c3)cc2)c1C
62	?	-1%	-3%	nt	CCCCn1c(N)c(N(CCC(C)C)C(=O)CCCc2nc3ccccc3s2)c(=O)[nH]c1=O
63	3.2%	-6%	16%	-8	COc1ccc(CCC(=O)NCc2cnn(C)c2)cc1
64	2.5%	-12%	-10%	0	O=C(N/N=C1\CC2CC=CC12)c1ccccc1Cl (stereo not given)
65	0.3%	-11%	1%	-1	Cc1ccc(OCC(=O)N2CCc3ccccc3C2)c([N+](=O)[O-])n1
66	1.5%	1%	1%	nt	CC(=O)c1ccc(N2CCN(CN3C(=O)CC4(CCCC4)C3=O)CC2)c(F)c1
67	-0.5%	nt	-7%	nt	O=C(c1cc2ccccc2o1)N1CCN(S(=O)(=O)c2ccc(Cl)s2)CC1
68	3.9%	-18%	0%	2	CC(C)(C)NC(=O)C(=O)NNC(=O)c1ccccc1
69	-0.5%	nt	15%	nt	CCN(CC)C(=O)c1ncn(Cc2ccccc2)c1C(=O)N(CC)CC
70	0.5%	-10%	1%	4	Cc1nc2c(O)cccc2cc1CO
71	1.8%	nt	13%	nt	Cc1cc(=O)c(C(=O)Nc2ccc(N3CCOCC3)cc2N2CCOCC2)nn1-c1ccccc1Cl
72	11%	-21%	-5%	5	Cc1ccc(CN2CCN(CC(=O)N/N=C/c3ccccc3F)CC2)cc1
73	-1.8%	?	5%	-8&0	O=c1cc(-c2ccccc2Cl)oc2c([N+](=O)[O-])c(O)cc(O)c12
74	-1.7%	-25%	13%	-4	Cc1nc(NC(=O)CN2CCC(O)(c3ccc(F)cc3)CC2)sc1C
75	2.1%	12%	0%	nt	O=C(Cc1nnc(NC(=O)c2cccc([N+](=O)[O-])c2)s1)NCc1ccccc1
76	0.6%	2%	-2%	0	CNC(=S)N1CCC(n2cnc3ccccc32)CC1
77	-0.7%	-4%	-3%	nt	N#CCC(=O)Nc1ccc(C(=O)N2CCN(c3ccccn3)CC2)cc1
78	-0.4%	-8%	20%	-25	C=CCNC(=S)Nc1cccc2[nH]ncc12
79	-2.6%	nt	10%	nt	COc1ccccc1NC(=O)CSc1nc(=O)n2cc(C)ccc2n1
80	-1.5%	2%	2%	-17	CN1C(=O)C(CC(N)=O)N(NC(=O)c2ccc(Cl)cc2)C1=S (stereo not given)
81	2.9%	7%	14%	nt	Cc1ccc(NS(=O)(=O)c2c(C)[nH]c(C)c2C(=O)N2CCCCC2)cc1F
82	-1.6%	nt	22%	nt	COc1cc(NC(=O)C2CSC3(C)CCC(=O)N23)c(OC)cc1Cl (stereo not given)
83	nt	-23%	nt	-3	Cc1cc(/C=C(\C#N)c2nnc(N3CCOCC3)n2-c2ccccc2)c(C)n1-c1ccccc1
84	-5.2%	nt	-26%	nt	C[C@H](CO)N1C[C@H](C)[C@@H](CN(C)S(=O)(=O)c2cccs2)Oc2c(NC(=O)CCC(F)(F)F)cccc2C1=O
85	-3.6%	-2%	-6%	-2	Cc1nc2c(=O)n(-c3ccc(F)c(Cl)c3)nc(C)c2s1
86	4.1%	nt	-7%	nt	CCC[C@@H](CN1CCC[C@H]1CN1C(N)=NC[C@@H]1Cc1ccccc1)N1C[C@@H](Cc2ccccc2)N(CCCC2CCCC2)C1=N
